# Source: PubChem BioAssay
# HNF4A DNA FP – change in binding of human HNF4A to DNA, primary screen, biochemical, fluorescence polarization, FITC-DNA; Hepatocyte nuclear factor 4-alpha (Homo sapiens), P41235; 1 h; activity change, % at 10 µM; actives 0.3% (n = 360,000); in the data active means activity change above about 30%, passing the limit was not always enough;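 further: controls were the assay level and a saturating level of protein; the project sought stronger binding though the title names inhibitors; some compounds called inactive have numbers as strong as hits; positive values seem to mean higher polarization but the record does not say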
# Beta2AR agonist – beta2AR agonists driving receptor internalization, primary screen, cell-based, FAP fluorogen, flow cytometry; Beta-2 adrenergic receptor (Homo sapiens), P07550; Am2.2-beta2AR cells; reference of the scale not given here; response, % (concentration not given with the values); actives 0.43% (n = 340,000); AID 504454, 2011;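 active means response above a set limit, near 3 SD of response in nonfluorescent compounds, cut at about 42% in these data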;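 further: stock transfer was 100 nL into about 11 µL; a reference agonist was the positive control; negative values mostly stem from fluorescent compounds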
# Calb FLC – C. albicans growth inhibition with fluconazole, primary screen, CaCi-2 strain, Alamar Blue fluorescence. actives 0.57% (n = 300,000). growth inhibition, % (concentration not given with the values). C. albicans CaCi-2 (fluconazole-resistant clinical isolate) + fluconazole, 48 h. AID 1979, 2009;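 active means most replicates above 75%; inconclusive means exactly half above 75%; inactive means most below 75%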;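 further: all wells also contain fluconazole at 8 µg/ml as a sub-toxic cotreatment; 0% = median of DMSO wells and 100% = median of geldanamycin control wells; wells of about 8 µL received 7.5 nL stock; the first replicate is given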
# LANA-H2A inh – blockers of LANA interaction with H2A/H2B – biochemical, FP readout, HTS, primary screen; actives 0.6% (n = 320,000); AID 2629, 2010; cell-free LANA-H2A/H2B peptide, fluorescence polarization; Protein LANA1 (Human herpesvirus 8 type P (isolate GK18)), Q9QR71; inhibition, % (test concentration not listed); in the data active means inhibition mostly above about 10%, no sharp cut-off; inactive means mostly below about 6.7%;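 further: stock transfer was 7.5 nL into about 10 µL; 0% = median of vehicle wells and 100% = median of positive control wells; one replicate is shown; the record names a cut of 25% in any replicate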
# Target sequence (Q9QR71 whole entry, looked up): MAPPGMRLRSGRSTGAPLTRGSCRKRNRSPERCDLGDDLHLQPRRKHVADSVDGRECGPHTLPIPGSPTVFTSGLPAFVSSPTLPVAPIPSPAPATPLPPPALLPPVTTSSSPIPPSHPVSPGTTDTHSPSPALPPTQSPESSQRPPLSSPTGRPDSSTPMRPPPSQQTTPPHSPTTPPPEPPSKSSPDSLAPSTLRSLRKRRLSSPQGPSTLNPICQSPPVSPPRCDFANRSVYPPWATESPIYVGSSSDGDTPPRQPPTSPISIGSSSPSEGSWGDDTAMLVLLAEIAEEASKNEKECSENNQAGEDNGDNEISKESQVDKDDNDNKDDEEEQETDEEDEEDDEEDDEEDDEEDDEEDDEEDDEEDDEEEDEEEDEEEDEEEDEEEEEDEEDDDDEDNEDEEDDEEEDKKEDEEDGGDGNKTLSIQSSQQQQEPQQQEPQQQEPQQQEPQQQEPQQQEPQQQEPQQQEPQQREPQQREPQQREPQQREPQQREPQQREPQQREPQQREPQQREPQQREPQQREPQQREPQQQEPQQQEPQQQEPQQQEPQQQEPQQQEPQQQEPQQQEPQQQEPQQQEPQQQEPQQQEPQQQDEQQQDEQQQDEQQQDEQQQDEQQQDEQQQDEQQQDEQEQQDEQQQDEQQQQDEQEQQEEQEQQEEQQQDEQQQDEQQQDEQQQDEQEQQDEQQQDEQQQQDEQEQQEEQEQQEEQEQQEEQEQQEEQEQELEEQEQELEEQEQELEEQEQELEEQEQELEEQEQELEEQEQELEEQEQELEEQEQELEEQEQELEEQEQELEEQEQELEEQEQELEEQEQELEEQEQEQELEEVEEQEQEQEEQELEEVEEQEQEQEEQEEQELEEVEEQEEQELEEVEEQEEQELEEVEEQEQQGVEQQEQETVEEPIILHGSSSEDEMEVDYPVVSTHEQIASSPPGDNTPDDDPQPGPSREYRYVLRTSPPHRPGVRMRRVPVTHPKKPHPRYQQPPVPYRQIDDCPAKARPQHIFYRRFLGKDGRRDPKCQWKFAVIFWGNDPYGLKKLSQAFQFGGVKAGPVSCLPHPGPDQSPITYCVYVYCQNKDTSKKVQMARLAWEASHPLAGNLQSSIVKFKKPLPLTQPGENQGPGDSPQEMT
# RanGTP-Impb inh – inhibitors of RanGTP-importin-beta interaction, primary screen, biochemical, FRET, CFP-Ran, YFP-importin-beta, homogeneous; cell-free CFP-Ran/YFP-importin-beta FRET ratio; actives 1.1% (n = 300,000); inhibition, % (no concentration beside the values); AID 2216, 2009;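 active means most replicates above 15%; inconclusive means exactly half above 15%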;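 further: 0% = DMSO wells and 100% = Ran loaded with GDP instead of GTP; wells of about 40 µL received 100 nL stock; the first replicate is given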
# Vif TR-FRET – inhibitors of Vif binding to APOBEC3G peptide, primary screen, biochemical, TR-FRET, GST-Vif 1-94, biotin-A3G peptide, dose response retest (AID 1117319) | Virion infectivity factor (Human immunodeficiency virus type 1 group M subtype B (isolate … | one-dose inhibition, %; IC50 in µM for titrated hits | actives 0.57% (n = 260,000) | TR-FRET GST-Vif / biotin-A3G peptide binding; higher % means a stronger effect; test concentration not given here; strong numbers were not always called active;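 active means above the screen mean plus three standard deviations and confirmed in dose response; inconclusive means results disagree or hit not tested in dose response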;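 further: Vif residues 1-94 fused to GST binding biotinylated APOBEC3G peptide 110-148; 0% = full assay without inhibitor and 100% = GST in place of GST-Vif; retest series ran down from 100 µM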
# ALR H2O2 inh – inhibitors of human ALR sulfhydryl oxidase, primary screen, biochemical, H2O2 detection, HRP-luminol luminescence, single point. FAD-linked sulfhydryl oxidase ALR (Homo sapiens), P55789. actives 3.8% (n = 290,000). inhibition, % (test concentration not listed). AID 485317, 2010. purified ALR, DTT oxidation;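 active means mean and each replicate at 75% or more; inconclusive means only one of the two met; inactive means neither met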;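 further: stock transfer was 7.5 nL into about 7.5 µL; 0% = neutral wells and 100% = wells with inactivated enzyme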
# Active calls of the source: *; u = inconclusive; x = not tested or not shown; & = joins results of further samples.
SMILES,HNF4A DNA FP,Beta2AR agonist,Calb FLC,LANA-H2A inh,RanGTP-Impb inh,Vif TR-FRET,ALR H2O2 inh
COc1cc(/C=N/OCC(=O)Nc2ccc(OC(F)F)cc2)ccc1OCc1ccccc1,33.7,-4.5,-6.3,-0.8,-1.3,x,-5.2
CC(=O)Nc1ccc(C(=O)NCCN2CCOCC2)cc1,4.7,0.6,0.8,2.2,5.4,-2.7%,-0.3
CC(=O)Nc1ccc(Nc2ccc([N+](=O)[O-])cn2)cc1,-0.6,-0.1,0.6,-4.8,1.9,x,11.7
CCOc1cccc(C(=O)NC(=S)Nc2cccc(NC(=O)c3ccccc3Cl)c2)c1,-1.7,-14.7,4.6,0.3,u,-7.2%,1.5
Cc1ccc2nc(N3C(=O)CNC3=S)sc2c1,7.8,16.2,10.3,-15.0,-0.1,-10.9%,93.2*
C[C@@]12C(=O)Nc3cc(Cl)ccc3C(=O)N1[C@H]1c3cc(Cl)ccc3OC[C@@H]1[C@@H]2c1ccccc1,3.1,5.6,x,2.2,x,x,-0.1
FC(F)(F)c1nc2cc3nc4ccccc4[nH]c3cc2n1,2.6,2.1,-0.9,0.5,-12.9,0.8%,-0.8
CN(C)/C=C/c1onc(-c2c(Cl)cccc2Cl)c1C#N,19.8,4.1,2.6,-1.7,u,x,-8.2
Cc1ccc(C)c(NC(=O)CN(C)C(=O)c2ccc3[nH]c4c(c3c2)CC(C)CC4)c1 (configuration not stated),1.9,11.6,x,-7.5,25.8*,-8.9%,0.4
CSc1ccc(C(=O)N2CCC(CCC(=O)NCc3ccc(F)cc3)CC2)cc1,-2.9,1.1,9.0,x,0.7,x,x
O=S(=O)(c1ccc(SCCOc2cccc(Br)c2)nc1)N1CCCC1,3.8,-3.5,x,4.0,x,x,8.4
O=C(NCc1ccc(Cl)cc1)c1ccc(-c2ccccc2C(F)(F)F)o1,1.2,-4.2,-0.1,-4.5,4.6,30.9%,-2.6
O=C(N/N=C/c1ccco1)c1cc(-c2ccc(Br)s2)[nH]n1,-6.0,-3.9,-0.9,0.0,u,12.5%,56.9
CCCCc1nnc(SCC(=O)Nc2nccs2)n1CC,1.5,-3.3,-6.1,0.1,2.4,x,1.5
CC1CC(=O)Nc2ccccc2N1C(=O)CSc1ncnc2sccc12 (configuration not stated),4.5,3.1,x,-0.2,x,0.3%,-2.5
Cc1ccc(S(=O)(=O)Nc2ccc(S(=O)(=O)NC(C)(C)C)cc2)cc1,-1.5,-2.7,u,-0.9,2.5,30.9%,-20.1
O=C(Cn1cnc2c(nnn2Cc2ccccc2F)c1=O)OCc1ccccc1,-1.0,11.7,6.3,-4.4,1.2,20.6%,-9.8
CC(=O)Nc1ccc2c(c1)nc1n2CCN(C2CCCCC2)C1,6.8,-6.2,x,x,x,20.3%,x
Cc1cccc(C)c1OCC(=O)NCc1nnc(SCC(=O)NC2CCCCC2C)n1C (configuration not stated),0.1,-1.5,-10.2,-3.3,u,19.1%&-2.1%,-0.7
Nc1sc(-c2ccccc2)c(Cc2ccccc2)c1C(=O)O,0.9,6.5,10.8,-9.7,-2.0,11.7%,46.4
O=C(COc1ccc2ccccc2c1Br)N1CCOCC1,-1.9,2.1,-2.7,5.4,-0.4,15.2%,-16.2
CCOC(=O)c1c(-c2ccc(OC)cc2)csc1/N=C/N(C)C,2.6,13.6,2.8,-5.8,-4.7,x,14.2
CCCCCc1c(O)nc(SCC(=O)NCC2CCCO2)[nH]c1=O (configuration not stated),-0.4,3.3,-3.6,0.4,1.7,1.4%,0.7
CS(=O)(=O)N(CC(=O)NCCc1ccccc1)c1cccc([N+](=O)[O-])c1,4.8,-0.1,-27.0,4.1,1.2,-0.9%,-15.4
CCOC(=O)c1cnc(-n2nc(C)cc2C)nc1N1CC(C)OC(C)C1 (configuration not stated),2.7,-3.0,26.9,0.0,-1.0,-10.4%,-14.4
CCOc1ccc(S(=O)(=O)NCc2ccncc2)cc1NC(=O)c1ccccc1,2.7,-10.1,1.9,x,1.4,-15.4%,x
FC(F)C(F)(F)C1=CC(c2cccs2)=NCCN1,-1.6,-3.2,0.8,-0.9,0.1,2.1%,-5.9
Cc1cc(C)c(S(C)(=O)=O)c(=O)[nH]1,0.2,0.4,-3.9,4.6,u,0.1%,-3.4
CCOc1ccccc1CNCCOC,-1.8,-3.8,17.2,-5.8,-0.4,x,x
CCOC(=O)C1CCN(C(=O)c2ccc(OCC(=O)Nc3ccc(OCC)cc3)c(OC)c2)CC1,0.1,8.2,0.0,x,u,2.7%,x
CCOC(=O)N1CCC(NC(=O)C2=C(C)C(=O)OC23CCC(C)CC3)CC1 (configuration not stated),1.4,-8.8,4.4,1.5,u,14.0%,-2.8
Cc1cccc(OCC(=O)NCC(=O)N/N=C/c2cc(Br)ccc2OCc2ccccc2)c1,0.4,-3.2,10.6,-1.9,1.7,x,-2.7
S=c1[nH]nc(-c2cccnc2)n1/N=C/C(Cl)=C\c1ccccc1,-0.1,0.6,-6.1,x,-2.6,u,x
COc1cccc(/C=N/NC(=O)C(=O)NCc2cccnc2)c1OC,0.9,-5.5,-3.2,-1.2,5.0,x,-8.7
CCN(c1ccccc1)S(=O)(=O)c1ccc(Cl)c(NC(=O)CSc2nnc(C)s2)c1,-1.9,-8.4,-3.8,-1.5,0.7,x,-11.1
Cc1ccccc1C(OCC(O)CN1CCN(CCO)CC1)c1ccccc1 (configuration not stated),-1.7,11.1,-7.7,0.4,u,1.8%,x
Cc1ccc2oc(-c3ccco3)cc(=O)c2c1,2.1,1.5,-20.5,1.3,-1.8,6.2%,-4.7
CC[C@@]1(C(=O)OC)N[C@H](CN(C)C(=O)Nc2ccc(C(F)(F)F)cc2)[C@@H]2C(=O)N(C)C(=O)[C@@H]21,-0.2,3.1,x,x,x,-7.0%,x
Oc1ccccc1C1OCC2(CO1)COC(c1ccccc1O)OC2 (configuration not stated),-0.2,7.0,19.9,0.4,-0.4,u,34.9
CC1(C)SC2C(C(=O)O)N=C(Cc3ccccc3)N2C1C(=O)O (configuration not stated),-3.5,-6.1,x,x,x,-2.3%,x
CC(=NNC(=O)CCC(=O)Nc1ccccc1Cl)c1ccco1,2.0,-3.1,x,6.5,x,-3.7%,3.5
Cc1cccc2c1NC(=O)C21OCC(CO)([N+](=O)[O-])CO1 (configuration not stated),1.1,-1.9,-7.9,-0.2,u,2.0%,-7.8
CCOc1ccc(N2CSC(=S)N(c3ccc(OCC)cc3)C2)cc1,0.6,-3.1,17.3,-0.2,2.6,11.1%,-8.2
Nc1nc2ccccc2n1/N=C/c1ccc([N+](=O)[O-])s1,-1.1,7.0,u,-1.9,-3.8,29.6%,-72.0
Cc1ccc(S(=O)(=O)N2CCCC2C(=O)OCc2nc3sc(C)c(C)c3c(=O)[nH]2)cc1 (configuration not stated),0.9,-1.4,6.5,-1.3,-1.2,6.3%,2.3
Cc1ccc(Cl)cc1N1CCN(CC(=O)NC2CCCc3ccccc32)CC1 (configuration not stated),-6.8,-1.1,-17.0,1.3,8.5,3.4%,x
COc1cccc(C(=O)NCCS(=O)(=O)NC(C)CCc2ccccc2)c1 (configuration not stated),1.3,30.3,-2.1,-8.0,-2.8,-1.1%,-3.8
Cc1cccc(S(=O)(=O)c2c(N)n(-c3ccccc3)c3nc4ccccc4nc23)c1,-0.9,-21.2,0.5,-9.8,-0.6,-9.7%,-1.6
Cc1cc(C(=O)NC2CCCC2)c2ccccc2n1,2.9,-0.8,0.5,-4.5,3.5,x,-12.5
COc1ccc(Cl)cc1N(CC(=O)NC1CC1)S(=O)(=O)c1ccc(C)c([N+](=O)[O-])c1,-1.6,-4.8,10.5,0.6,0.3,-0.1%,0.0
CCCNC(=O)NC(=O)COc1ccc2oc3ccccc3c2c1,-0.1,-7.8,-3.0,-3.7,-2.1,-6.0%,-3.5
Cc1cccc(N2CCN(C(=O)CNC(=O)c3cccc([N+](=O)[O-])c3)CC2)c1C,1.0,4.1,-1.2,4.4,5.6,x,x
O=C(CN1CCCCC1)Nc1ccc(N2CCCCCC2)cc1,71.7*,5.0,-19.3,-4.5,-0.9,25.3%,99.2*
CCOCCCNC(=S)NNC(=O)CCn1nc(C)c(Br)c1C,-3.0,0.5,8.3,2.6,8.6,u,6.9
COc1ccc(C(=O)N2CCN(C(=O)CC(C)C)CC2)cc1OC,1.7,1.5,-2.3,3.6,-2.6,-9.5%,2.9
Cc1ccccc1NCC(=O)N/N=C/c1c(C)c(C(=O)c2ccc(Cl)cc2)n2ccccc12,7.3,-0.4,-15.9,1.2,-1.5,-1.7%,-8.8
CCCCOc1ccc(C(=O)N(CC)CC(=O)NCc2cccs2)cc1,-0.6,-17.1,0.9,-1.1,1.3,3.4%,0.7
Cc1ccc(C(=O)COC(=O)C2CC(=O)N(c3nc(-c4ccccc4)cs3)C2)cc1 (configuration not stated),3.7,8.2,-9.9,0.8,1.1,2.1%,-1.1
Cc1cn(C2CCCCC2)c(=O)[nH]c1=O,2.5,-2.4,x,x,x,2.2%,x
O=C1NCCCC1C(=O)N1CCN(C(=O)c2ccco2)CC1 (configuration not stated),-3.6,0.4,0.3,-4.3,1.9,4.5%,0.4

# ALR H2O2 inh: entries above that show a hit
molecule | Beta2AR agonist | LANA-H2A inh | RanGTP-Impb inh | Vif TR-FRET | ALR H2O2 inh
Cc1ccc2nc(N3C(=O)CNC3=S)sc2c1 | 16.2 | -15.0 | -0.1 | -10.9% | 93.2*
O=C(CN1CCCCC1)Nc1ccc(N2CCCCCC2)cc1 | 5.0 | -4.5 | -0.9 | 25.3% | 99.2*

# Later entries:
SMILES,HNF4A DNA FP,Beta2AR agonist,Calb FLC,LANA-H2A inh,RanGTP-Impb inh,Vif TR-FRET,ALR H2O2 inh
O=C(NNC(=O)c1cccc2ccccc12)c1ccccc1O,-5.7,-4.3,0.4,-1.7,-1.8,0.2%,11.0
CC(OC(=O)C1CC1C)C(=O)Nc1ncc(Cl)cc1Cl (configuration not stated),1.0,2.5,-6.2,1.3,1.6,0.3%,-13.3
COc1cc(-c2noc(-c3ccco3)n2)cc(OC)c1OC,-1.3,-10.0,27.1,1.3,1.3,10.5%,-0.2
Cc1c(-c2ccc(Br)cc2)nc2ccccn12,0.8,-14.8,2.0,-1.9,1.7,12.0%,-12.1
CCOC(=O)c1sc2nc(NC(=O)COc3ccccc3)sc2c1C,3.3,-3.0,-0.5,-0.6,0.5,-1.1%,15.3
COc1cc(/C=C2/CCc3ccccc3C2=O)cc(OC)c1OC,-0.2,10.0,27.6,3.5,0.8,12.1%,-26.1
Cc1ccc(NS(=O)(=O)c2ccc(F)cc2)nc1,-3.4,4.0,-0.8,3.4,5.0,-0.9%,-9.7
COc1ccc(CCC(=O)NCc2ccc3c(c2)OCO3)cc1,-4.1,8.6,-4.8,-1.6,2.3,x,x
CCN1CCN(C(=O)CN(CC)S(=O)(=O)c2ccc(Cl)cc2)CC1,-4.4,-3.5,0.0,-5.2,-3.7,-1.4%,0.4
CCC(=O)Nc1sc(Cc2ccccc2)c(C)c1C(N)=O,0.3,-3.1,19.1,5.3,1.0,-9.2%,-5.8
